miR-21 FLuc: raises the signal of a miR-21 reporter; AID 2288; HeLa miR-21 FLuc reporter, luciferase, 48 h; Potency, µM (series often up to 38.3 µM), without a hit: top-dose reporter change, positive = more light; 340,000 tested, under 10 active; active = well fitted rising curve with a large enough effect; inconclusive = small, poorly fitted or top-dose-only effect; inactive = no such curve, though single readings can be large or run the other way;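 also: % of control where 0% means no effect; miR-21 action dims this reporter so a rising signal means less miR-21 action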
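HeLa cells endogenously expressing miR-21, stably carrying CMV-driven firefly luciferase with a downstream miR-21 binding site, 2000 cells/well. Titrations up to approximately 40 uM, 48 hours; luciferase luminescence read.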
Starred values were filed as active, the others as inactive; ? = inconclusive. Only part of the results is shown. The share of hits here may be higher or lower than overall.

miR-21 FLuc	structure
2%	O=C(NCc1cccc(F)c1)c1ccc(CN2CC(=O)N3CCCCC3C2=O)cc1 (centres undefined)
-5%	CC(=O)c1ccc(N2CCN(C(=O)CCC(=O)Nc3ccc4nc(N5CCCCC5)cc(C)c4c3)CC2)cc1
-1%	Cc1cnc2c(c1SCC(=O)NCc1ccc(F)cc1)c(=O)n(C)c(=O)n2C
14%	O=C(Nc1ccc2nc(SCC(=O)N3CCCc4ccccc43)sc2c1)c1ccc(Cl)cc1
-7%	Cc1ccc(C)c(NC(=O)Nc2csc3c2CCCC3)c1
-27%	COc1ccc(NC(=O)CSc2nnc(NC(=O)Nc3ccccc3)s2)cc1OC
3%	CCc1cccc(NC(=O)CN2C=NS(=O)(=O)c3ccccc32)c1
4%	COc1ccccc1OCC(=O)Nc1nnc2n1CCS2
-2%	CCc1cccc(NC(=O)C2CCCN(c3ncnc4onc(-c5ccc(F)cc5)c34)C2)c1 (centres undefined)
?	COc1ccc(CCNC(=O)c2cc(=O)[nH]c3ccc(S(=O)(=O)N4CCCCC4C)cc23)cc1OC (centres undefined)

Reformatted with bars between the fields: part of the list above
smiles | miR-21 FLuc
COc1ccccc1OCC(=O)Nc1nnc2n1CCS2 | 4%
CCc1cccc(NC(=O)C2CCCN(c3ncnc4onc(-c5ccc(F)cc5)c34)C2)c1 (centres undefined) | -2%

The list goes on:
miR-21 FLuc	structure
-11%	CCCCn1cc(S(=O)(=O)c2ccc(Cl)cc2)c(=O)c2cc(F)c(N3CCCCC3)cc21
4%	CCc1cccc(NC(=O)CSc2nc3ccsc3c(=O)n2CC)c1
4%	CCOc1ccc(OCC(=O)Nc2nnc3n2CCS3)cc1
-3%	COC(=O)c1ccc2c(=O)n(CCCCCC(=O)N3CCN(c4ccc(Cl)cc4)CC3)c(=O)[nH]c2c1
7%	Cc1ccc2c(c1)c1c(c(=O)n(-c3cccc(Cl)c3)c(=O)n1CC(=O)NCCC1=CCCCC1)n2C
-5%	CC(C)(C)c1ccc(-c2nc3cc(NC(=O)c4cccc(Br)c4)ccc3o2)cc1
-23%	O=C(Cc1ccccc1[N+](=O)[O-])OCc1cccc([N+](=O)[O-])c1
-9%	Fc1cccc(-c2nnn3c2nc(NCCc2ccccc2)c2ccccc23)c1
-37%	O=c1c(NCc2ccccc2Cl)nccn1-c1ccccc1
-19%	CC(C)(C)c1ccc(OCc2nc3ccccc3n2CCOc2ccccc2)cc1

4 records picked at random from those above, as already listed:
miR-21 FLuc	structure
-11%	CCCCn1cc(S(=O)(=O)c2ccc(Cl)cc2)c(=O)c2cc(F)c(N3CCCCC3)cc21
7%	Cc1ccc2c(c1)c1c(c(=O)n(-c3cccc(Cl)c3)c(=O)n1CC(=O)NCCC1=CCCCC1)n2C
-9%	Fc1cccc(-c2nnn3c2nc(NCCc2ccccc2)c2ccccc23)c1
4%	CCc1cccc(NC(=O)CSc2nc3ccsc3c(=O)n2CC)c1

Next records:
miR-21 FLuc	structure
-4%	CCOc1ccc(CN2C(=O)c3ccccc3Sc3ccc(C(=O)N4CCN(C)CC4)cc32)cc1
4%	CCOC(=O)CC(=O)CSc1nc2ccsc2c(=O)n1Cc1ccccc1
0%	NC(=O)c1c(NC(=O)CS(=O)(=O)c2ccc(Cl)cc2)sc2c1CCCC2
-17%	Cc1ccc2scc(N3CCN(c4ccccc4)CC3)c(=O)c2c1
16%	Cc1ccc(NS(=O)(=O)c2ccc3[nH]c4c(c3c2)CCCC4)cc1N(C)C
13%	O=C(NC1CCCCC1)c1ccc(CSc2nc3cccnc3n2Cc2ccccc2F)cc1
-2%	COc1ccc(-c2cc3nc(C4CCN(C(=O)OC(C)(C)C)CC4)c(C(=O)Nc4cc(Cl)cc(Cl)c4)cn3n2)cc1
2%	O=C(COc1ccc(F)cc1)Nc1ccc(C(=O)OCc2cc(=O)n3nc(C4CC4)sc3n2)cc1
-11%	COc1ccc(-c2nsc(NC(=O)COc3ccccc3OC)n2)cc1
4%	CCCCC(CC)Cn1c(Oc2ccccc2)nc2c1c(=O)n(C)c(=O)n2C (centres undefined)

Later entries
miR-21 FLuc	structure
1%	COc1ccc(CNC(=O)CN(C)S(=O)(=O)c2ccc3[nH]c4c(c3c2)CCCC4)cc1
?	COc1ccccc1-c1cc(C(F)(F)F)nc(S(=O)(=O)CCCC(=O)Nc2cc(Br)ccc2O)n1
-29%	Cc1cccc(N2CCN(C(=O)NCc3noc4ccccc34)CC2)c1C
2%	Cc1cc(C)cc(NC(=O)C(C)N2Cc3ccccc3C2=O)c1 (centres undefined)
-1%	Clc1ccc2nc(Nc3ccccc3Cl)nc(-c3ccccc3)c2c1
-50%	CC1CCc2onc(C(=O)Nc3ccc(Cl)cc3)c2C1 (centres undefined)
10%	O=C(CN1CCCN(Cc2ccc(F)cc2)S1(=O)=O)Nc1ccc2c(c1)OCCO2
-1%	Cc1nc2c(-c3ccccc3)c(C)nn2c(C)c1CCC(=O)NCc1cccc(Cl)c1
-2%	O=C(c1ccccc1)N1CCCC(c2nc3c(nnn3Cc3ccc(F)cc3F)c(=O)[nH]2)C1 (centres undefined)
-1%	CCc1nnc(SCc2c(F)cccc2Cl)c2cc3sccc3n12

(continued)
miR-21 FLuc	structure
4%	CCN(CC)CCCNC(=O)c1c(C)oc2ncnc(N3CCOCC3)c12
-4%	CCc1cccc(CC)c1NC(=O)CN(C)S(=O)(=O)c1ccc2c(c1)n(C)c(=O)c(=O)n2C
-4%	O=C(CC(c1cccs1)N1Cc2ccccc2C1=O)Nc1ccc(Cl)cc1 (centres undefined)
-7%	COc1ccc(-c2c(C)c3ccc(O)c(CN4CCOCC4)c3oc2=O)cc1
-3%	Nc1ccc2oc(Cc3ccc(Cl)cc3)nc2c1
13%	CCn1cc(C(=O)NCc2ccccc2OC)c(=O)c2cc(S(=O)(=O)N3CCCCCC3)ccc21
-1%	Cc1cccn2c(=O)c(/C=C(\C#N)c3nc4ccccc4[nH]3)c(Oc3ccc(C(C)(C)C)cc3)nc12
-5%	COc1ccc(NC(=O)Cn2c(=O)n(Cc3ccccc3Cl)c(=O)c3cc(OC)c(OC)cc32)cc1
0%	O=C(CSc1nc2c([nH]c3ccccc32)c(=O)n1-c1ccccc1)Nc1cccc(C(F)(F)F)c1
-6%	CC(C)c1ccc(NC(=O)C(Cc2ccccc2)NS(=O)(=O)c2ccc3c(c2)oc(=O)n3C)cc1 (centres undefined)

(continued)
miR-21 FLuc	structure
-25%	CCCC(=O)Nc1cccc(-c2nc3ncccc3o2)c1
-1%	CCN(CC)CCNC(=O)c1cc2c(=O)oc3ccc(C)cc3c2s1
14%	CC(=O)c1ccc(NC(=O)c2nc(-c3ccc(Cl)cc3)n3c2CCCCC3)cc1
-1%	COCCn1c(C)cc(O)c(C(c2ccccc2Cl)N2CCN(c3ccccc3)CC2)c1=O (centres undefined)
12%	O=C(c1ccc(F)cc1)N1CCC(c2nc3ccccc3s2)CC1
2%	COC(=O)c1cc(NC(=O)c2ccc3c(c2)N(Cc2cccc(Cl)c2)C(=O)c2ccccc2S3=O)cc(C(=O)OC)c1 (centres undefined)
0%	Cc1ccc(CNC(=O)CCCn2c(=O)c3ccccc3n(CC(=O)Nc3ccc(C)cc3)c2=O)cc1
?	CC(C)(C)OC(=O)N1CCC(c2c(C(=O)NCCN3CCC(Cc4ccccc4)CC3)cnn2-c2cccc(Cl)c2)CC1
-20%	CCc1nn(CC(=O)N2CCC(C)CC2)c(=O)c2cc3occc3n12
-42%	CCOC(=O)c1ccc(Nc2c(-c3ccc(O)c(OC)c3)nc3nc[nH]n23)cc1

Going on with the list.
miR-21 FLuc	structure
9%	COc1ccc(NC(=O)C2CCCN(S(=O)(=O)c3ccc4c(c3)CCCC(=O)N4)C2)c(OC)c1 (centres undefined)
-3%	COc1ccccc1-n1nc(-c2ccccc2)c2cnc3cc(C(F)(F)F)ccc3c21
-2%	CC(C)c1cnc2c(c1SCC(=O)Nc1ccccc1C(F)(F)F)c(=O)n(C)c(=O)n2C
-1%	CCN(CC)C(=O)Cn1c(=O)n(Cc2ccc(C(=O)NCc3ccccc3Cl)cc2)c(=O)c2ccccc21
7%	COc1ccc(NC(=O)CCn2nc(-c3ccc(Cl)cc3)c3ccccc3c2=O)cc1
4%	COc1ccc(-c2cc(NCc3ccc(F)cc3)n3cnnc3n2)cc1
-1%	Oc1c(C(c2ccc(Cl)cc2Cl)N2CCN(c3ccccc3)CC2)sc2nc(-c3ccco3)nn12 (centres undefined)
0%	Cc1nnc2c(N3CCN(c4ccccc4F)CC3)nc3ccccc3n12
28%	CCn1cc2nc(SCc3c(F)cccc3Cl)n(CCc3ccccc3)c(=O)c2n1
-13%	CCn1cc(C(=O)NCCc2ccc(OC)c(OC)c2)c(=O)c2cc(S(=O)(=O)N3CCCCCC3)ccc21

Structures from the list above that have an NH in an aromatic ring (8):
miR-21 FLuc	structure
?	COc1ccc(CCNC(=O)c2cc(=O)[nH]c3ccc(S(=O)(=O)N4CCCCC4C)cc23)cc1OC (centres undefined)
-3%	COC(=O)c1ccc2c(=O)n(CCCCCC(=O)N3CCN(c4ccc(Cl)cc4)CC3)c(=O)[nH]c2c1
16%	Cc1ccc(NS(=O)(=O)c2ccc3[nH]c4c(c3c2)CCCC4)cc1N(C)C
1%	COc1ccc(CNC(=O)CN(C)S(=O)(=O)c2ccc3[nH]c4c(c3c2)CCCC4)cc1
-2%	O=C(c1ccccc1)N1CCCC(c2nc3c(nnn3Cc3ccc(F)cc3F)c(=O)[nH]2)C1 (centres undefined)
-1%	Cc1cccn2c(=O)c(/C=C(\C#N)c3nc4ccccc4[nH]3)c(Oc3ccc(C(C)(C)C)cc3)nc12
0%	O=C(CSc1nc2c([nH]c3ccccc32)c(=O)n1-c1ccccc1)Nc1cccc(C(F)(F)F)c1
-42%	CCOC(=O)c1ccc(Nc2c(-c3ccc(O)c(OC)c3)nc3nc[nH]n23)cc1

Carrying on:
miR-21 FLuc	structure
-13%	COc1ccc(-c2cn3cccnc3n2)cc1NC(=O)Cc1ccccc1
?	Cc1ccccc1C(=O)NCc1ccc2c(c1)CCN2C(=O)c1ccc(F)cc1
5%	Cc1c(C(=O)N2CCCCCC2)c(S(=O)(=O)NCc2ccc(Br)cc2)c(C)n1C
0%	Cc1nn(C(C)(C)C)c(OC(=O)C(C)(C)C)c1Sc1ccccc1
-18%	Nc1c(C(=O)c2ccc3c(c2)OCO3)sc(Nc2ccccc2F)c1S(=O)(=O)c1ccccc1
-8%	COc1ccc2c(CNCc3cccs3)c(C(=O)O)n(Cc3cccc(F)c3)c2c1
-14%	Cc1nc(-c2ccccc2)sc1-c1ccc(SCC(=O)NCc2ccccc2)nn1
-1%	CC(=O)CSc1nnc2[nH]c(=O)cc(N)n12
-3%	CCN(CC)c1ccc(NS(=O)(=O)c2cc3[nH]c(=O)c(=O)[nH]c3cc2C)c(C)c1
5%	Cc1ccc(N2CCN(C(=O)c3c(C)oc4ncnc(N5CCCCC5)c34)CC2)c(C)c1

(next part)
miR-21 FLuc	structure
0%	Cc1ccn2c(=O)c(C(=O)NCc3ccccc3Cl)c(O)nc2c1
0%	COc1ccccc1N1CCN(C(=O)CSc2n[nH]c(-c3ccccc3)n2)CC1
-6%	COc1ccc(-c2nnc(SCC(=O)N(C)C3CCCCC3)o2)cc1OC
-3%	Cc1c(C)n(Cc2ccccc2)c2ccc(C(=O)NC(C)c3ccccc3)cc12 (centres undefined)
0%	CCN1C(=O)c2ccccc2S(=O)(=O)c2ccc(C(=O)NCc3ccc(F)cc3)cc21
-12%	Cc1ccc2c(c1)N(C(=O)CCC(=O)NCc1cccs1)CC(C)O2 (centres undefined)
0%	Cc1cccc(Cn2c(=O)n(CC3CCC(C(=O)NC(C)C)CC3)c(=O)c3sccc32)c1 (centres undefined)
23%	Fc1ccc(-c2nc(-c3cccs3)c(-c3cccs3)[nH]2)cc1
2%	Cc1ccccc1OCC(=O)N(Cc1ccc(C(C)C)cc1)C1CCS(=O)(=O)C1 (centres undefined)
-20%	COC(=O)c1ccc(Cn2c(SCc3ccccc3)nc3ccncc32)cc1

Remaining list, next part.
miR-21 FLuc	structure
25%	Cc1ccccc1NC(=O)C1CCC(CNS(=O)(=O)c2ccc3c(c2)C(C)(C)C(=O)N3C)CC1 (centres undefined)
2%	CCOC(=O)c1c(C)n(S(=O)(=O)c2ccc(C)cc2)c2ccc(NS(=O)(=O)c3ccc(C)cc3)cc12
-56%	CCOC(=O)Cn1cnc2c(cnn2-c2ccc(C)c(C)c2)c1=O
-4%	Cc1cc(C)cc(NC(=O)c2c(C)oc3nc(C)nc(N4CCCC4)c23)c1
12%	Cc1ccc(CCNC(=O)c2oc(=O)c3ccccc3c2-c2ccc(C)cc2)cc1
5%	COCCNc1cc(N2CCN(C3CCCCC3)CC2)c2noc3c2c1C(=O)c1ccccc1-3
0%	Cc1cccc(NC(=O)CSc2nccn2-c2cccc(Cl)c2)c1C
-7%	Cc1ccc(C)c(C(=O)N2CCC(c3nc4c(nnn4Cc4ccccc4)c(=O)[nH]3)CC2)c1
-1%	Cc1ccc(N(C)C(=O)Cn2cc(S(=O)(=O)N3CCCC3)c(S(=O)(=O)N3CCCC3)c2)cc1
-7%	CCn1c(C(=O)Nc2ccc(C)cc2C)cc2sc(Cl)cc21

Other records
miR-21 FLuc	structure
1%	COc1ccc(-n2ncc(C(=O)NCc3ccco3)c2C2CCN(C(=O)OC(C)(C)C)CC2)cc1
5%	CCn1ccc2cc(S(=O)(=O)N3CCCN(C(=O)Nc4cc(Cl)ccc4C)CC3)ccc21
?	CCOc1ccc(S(=O)(=O)N(C(=O)c2ccncc2)c2ccc3oc(C)c(C(=O)OC)c3c2)cc1
?	CCOC(=O)C1CCN(C(=O)CSc2c3c(nc4ccc(Cl)cc24)CCCC3)CC1
17%	Cc1ccc(C)c(N2C(=O)N(Cc3ccccc3C)c3ccccc3S2(=O)=O)c1
3%	CCc1nn(CC(=O)N2CCCCC2)c(=O)c2cc3sccc3n12
-41%	Cc1ccc(-c2nnc3ccccc3c2C(=O)Nc2cccc(C(F)(F)F)c2)cc1
-2%	Cc1ccc(-c2cc3ncc(C(=O)c4cc(Cl)c(C)cc4O)cn3n2)cc1
8%	CCOC(=O)c1cccc(NC(=O)c2cc(S(=O)(=O)N3CCCCCC3)cn2C)c1
0%	Cn1c(=O)n(CC(=O)O)c(=O)c2c1nc1n2CCCN1c1ccc(Cl)cc1
